# Assay outcomes deposited in PubChem by several laboratories.
# eIF4H FP inh: inhibitors of RNA binding by human eIF4H. inhibition, % at 35 µM. 290,000 tested, 0.94% active. eIF4H fluorescence polarization binding assay. Q15056;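 active = 50% or more with normal probe brightness, or confirmed in later tests; inconclusive = above 50% with abnormal brightness, or retests that disagree; inactive = below 50% or failed in later tests; about a fifth of its hits are not listed in these tables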;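 note: calls also rest on retests at 20 µM and on dose response follow-up; 0% = protein and probe with vehicle and 100% = probe without protein; strong numbers were not always called active; many hits fall short of the cut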
# Rce1 inhib: blocks yeast Ras-converting enzyme. yeast membranes, quenched prenylated peptide cleavage fluorescence. calls only. Q03530. 290,000 tested, 0.27% active;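 active = fall in fluorescence gain of 50% or more versus controls, with final raw signal at or below 3038400; inconclusive = same 50% fall but final raw signal above 3038400; inactive = fall in fluorescence gain under 50%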;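 note: plate controls were neutral control wells for no effect and wells lacking membranes for full effect; tested at 10 µM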
# Target sequence (Q03530 whole entry, looked up): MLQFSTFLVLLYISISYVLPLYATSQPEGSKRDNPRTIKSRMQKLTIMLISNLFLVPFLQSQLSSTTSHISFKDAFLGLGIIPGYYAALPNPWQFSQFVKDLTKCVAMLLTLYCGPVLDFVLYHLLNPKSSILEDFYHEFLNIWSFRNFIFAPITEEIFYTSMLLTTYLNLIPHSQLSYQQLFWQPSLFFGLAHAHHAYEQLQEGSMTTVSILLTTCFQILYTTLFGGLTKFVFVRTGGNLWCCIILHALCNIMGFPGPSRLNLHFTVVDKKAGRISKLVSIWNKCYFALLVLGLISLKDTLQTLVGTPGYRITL
# PABP FP inh: PABP-poly(A) binding inhibition | P11940 | PABP-poly(A) RNA binding, fluorescence polarization | inhibition, % at 35 µM | 290,000 tested, 1% active | AID 2014;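 active = 50% or more with normal probe brightness, or confirmed in later tests; inconclusive = above 50% with abnormal brightness, or retests that disagree; inactive = below 50% or failed in later tests; about a fifth of its hits are not listed in these tables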;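 note: calls also rest on retests at 20 µM and on dose response follow-up; controls were probe without protein and protein plus probe with vehicle; some compounds called inactive have numbers as strong as hits; many hits fall short of the cut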
# Target sequence (P11940 whole entry, looked up): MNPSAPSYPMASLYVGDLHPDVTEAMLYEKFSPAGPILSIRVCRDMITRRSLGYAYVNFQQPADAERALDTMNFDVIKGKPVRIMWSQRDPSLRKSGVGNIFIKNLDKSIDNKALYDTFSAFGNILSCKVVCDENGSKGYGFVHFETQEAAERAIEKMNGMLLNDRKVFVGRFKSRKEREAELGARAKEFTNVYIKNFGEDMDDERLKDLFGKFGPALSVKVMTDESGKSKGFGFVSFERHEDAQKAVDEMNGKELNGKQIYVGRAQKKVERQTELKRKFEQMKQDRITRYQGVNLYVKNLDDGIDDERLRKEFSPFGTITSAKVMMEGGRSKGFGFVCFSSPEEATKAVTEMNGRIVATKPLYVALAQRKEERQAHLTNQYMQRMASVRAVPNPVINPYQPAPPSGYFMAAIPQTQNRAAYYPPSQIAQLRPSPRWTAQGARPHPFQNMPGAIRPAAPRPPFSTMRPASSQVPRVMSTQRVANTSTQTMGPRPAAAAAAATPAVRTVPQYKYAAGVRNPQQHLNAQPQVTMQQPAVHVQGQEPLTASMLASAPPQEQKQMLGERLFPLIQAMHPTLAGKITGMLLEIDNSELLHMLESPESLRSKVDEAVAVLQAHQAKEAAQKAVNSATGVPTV
# MT1-MMP act inh: MT1-MMP (human) activation inhibition; HT1080 RFP-PRO-GFP cells, GFP/RFP ratio fluorescence, overnight; percent of plate control window, DMSO zero; GFP/RFP ratio change, % at 20 µM; 360,000 tested, 0.061% active; AID 651647; P50281;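 active = GFP/RFP ratio change of at least 30% with cell ATP level not reduced by more than half and red fluorescence within 50% of control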; note: strong numbers were not always called active
#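 Assay system: HT1080 cells carrying an RFP-PRO-GFP reporter | Dosing: Single dose of 20 µM compound, 1% DMSO final | Incubation: Cells overnight before dosing, compound overnight, 37 °C, 5% CO2 | Evaluation: GFP/RFP fluorescence ratio | Control set: DMSO and RFP-L50D-GFP cell wells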
# CSC inhib: blocks cancer stem cells | inhibition, % at 7.5 µM | cancer stem cell-like cells viability, luminescence | 300,000 tested, 1.1% active;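 active = mean at 75% or more and at least half the replicates too; inconclusive = mean and replicates disagree; tested in HMLE shEcad cells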;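 note: 0% = median of negative and 100% = median of positive control wells; the first replicate is given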
# UUG fidelity: alters start codon recognition fidelity in yeast | S. cerevisiae UUG-firefly luciferase reporter, luminescence/redox ratio | activity score, % at 18.7 µM | 350,000 tested, 0.13% active;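 active = replicate mean at a twofold rise or more, about +100% in these data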;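 note: firefly luciferase made from a UUG start codon reports start codon fidelity; reporter light over untreated wells divided by growth signal over untreated wells; some hits fall short of that in this replicate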
# Env fusion inh: blocks HIV Env-driven cell-cell fusion; 360,000 tested, 1.1% active; AID 651610; HeLa-JRFL Env/CEM21 cell fusion, luciferase; inhibition, % at 12.3 µM;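 active = mean replicate inhibition score of at least 50 and every replicate individually at or above 50; inconclusive = only one of the two criteria met; inactive = mean below 50 and not all replicates reaching 50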;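 note: 0% = plate neutral controls and 100% = maraviroc near 300 nM; one replicate is shown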
# eIF4H FP inh retest: also measured in eIF4H FP inh; calls as there; inhibition, %; compound at 20 µM; confirmation average;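 mean of two retest wells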
# PABP FP inh retest: recorded beside PABP FP inh, whose call it bears; inhibition, %; compound at 20 µM; confirmation repeats;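 mean of two retest wells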
# MT1-MMP act inh RFP: recorded beside MT1-MMP act inh, whose call it bears; RFP signal change, %; measured here: RFP expression control read;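 0 = vehicle wells; hits needed this value within 50% of zero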
# * hit, by the source's call; i = inactive; ? = inconclusive; . = not tested or not shown; & = joins results of further samples. Some of the compounds tested; count on the stated rates, not on these rows.
SMILES,eIF4H FP inh,Rce1 inhib,PABP FP inh,MT1-MMP act inh,MT1-MMP act inh RFP,CSC inhib,UUG fidelity,Env fusion inh,others
C/C(=N\NC(=O)C(N)=O)c1cccc(C(F)(F)F)c1,-15,i,5,2,4,-10,-23,6,
CCCCCCOC(=O)NCC(O)c1ccccc1 (configuration not stated),6,i,8,2,3,-11,-7,-87,
CCC(C)N=CC1=C(O)C(C(=O)OC)C(C)(C)CC1=O (configuration not stated),-3,i,28,1,8,-5,-21,.,
Cc1cc(C)cc(NC(=S)NC(=O)C2CC2)c1,-2,i,-7,1,4,-9,-27,-46,
CC(C)C(OC(=O)c1ccco1)C(=O)NCc1ccco1 (configuration not stated),.,i,.,-2,3,11,-1,-35,
CCOc1ccc(S(=O)(=O)Nc2ccc(Cl)cn2)c(C)c1C,-3,i,-2,5,0,-14,-10,-11,
COc1ccc(CCNS(=O)(=O)c2ccccc2)cc1OC,4,i,-6,-1,2,-10,705*,.,
Cn1c(=O)c2c(ncn2CC(=O)NCc2cccnc2)n(C)c1=O,-2,i,-3,5,5,-5,2,.,
O=C(/C=C/c1ccco1)Nc1ccc(N2CCCC2)cc1,-4,i,1,0,0,7,.,-85,
CCN1CCN(Cc2ccc(NC(=O)Nc3ccccc3)cc2)CC1,-12,i,-16,-3,2,-9,-43,.,
COCCNC(=O)c1cccc(OC2CCN(Cc3ccccc3OC(F)F)CC2)c1,5,i,5,-2,-3,-10,-4,12,
N#CC(=C=[N-])c1nc2ccccc2nc1-[n+]1cccc(NC(=O)c2ccc(F)cc2)c1,5,i,8,.,.,8,.,1,
CCOC(=O)C1=C(C)N(c2ccc(Cl)cc2)C(=O)NC1c1cccc([N+](=O)[O-])c1 (configuration not stated),-11,i,-26,0,-3,-5,-11,1,
CC(=O)c1cccc(NC(=O)N2CCCC2C(=O)NCCc2ccccc2)c1 (configuration not stated),-3,i,-5,-2,-1,-7,-11,-19,
O=C(c1cc(-c2ccccc2O)on1)N1CCCC1,0,i,0,2,3,0,-8,-8,
CCC(=O)N1CCN(c2cc(NCC3CCCO3)c(F)cc2[N+](=O)[O-])CC1 (configuration not stated),4,i,-1,2,-3,-8,.,-2,
CC(NC(=O)Cn1nc(C(F)(F)F)c2c1CCC2)c1ccccc1 (configuration not stated),-8,i,6,3,4,7,-7,.,
Cc1onc(-c2ccccc2)c1C(=O)NCc1ccccn1,-2,i,-2,0,-3,-11,-14,-12,
CNC(=O)c1cccc(N2CCCC2=O)c1,5,i,7,2,-1,2,-16,-45,
CC/C(=N/NC(=O)c1ccc2c(c1)OCO2)c1ccccc1O,.,i,.,1,-3,.,-11,4,
CSc1ncccc1C(=O)OC(C)C(=O)Nc1ccc2c(c1)OCCO2 (configuration not stated),.,.,.,7,2,.,-19,5,
Fc1cc(F)c(F)c(SCCc2ccncc2)c1F,-8,i,-4,-5,-3,30,-21,?,
Cn1c(=O)c2c(ncn2CC(=O)OCc2ccccc2)n(C)c1=O,-2,i,5,3,1,-8,-11,31,
Cc1[nH]c2ccccc2c1C(O)CN1CCN(c2cccc(C(F)(F)F)c2)CC1 (configuration not stated),-3,i,-2,-6,-6,-6,.,.,
CCN(Cc1ccccc1)S(=O)(=O)CCNC(=O)c1ccc(OC)cc1,.,i,.,-2,-4,-2,5,0,
CCN1C(=O)[C@@H]2[C@H](C1=O)[C@@H]1C(=O)Nc3ccccc3C(=O)N1[C@@H]2c1cccc(C)c1,.,.,.,2,2,2,3,-13,
O=C(CSc1nc2ccccc2c(=O)[nH]1)Nc1ccccc1N1CCOCC1,-15,i,-3,4,4,4,-20,8,
CSCCC(NC(=O)c1ccccc1Cl)C(=O)NNC(=O)c1ccccc1O (configuration not stated),.,i,.,1,4,27,-18,-5,
CCn1nnc(-c2ccccc2NC(=O)c2cc(OC)cc(OC)c2)n1,1,i,-11,-4,2,40,7,.,
C=CCN(CC=C)C(=O)CCc1nnc(CCc2c[nH]c3ccccc23)o1,-10,i,-4,2,-1,-4,.,18,
COc1ccc(NC(=O)COC(=O)Cc2cccs2)cc1OC,.,i,.,4,2,-13,11,-5,
CCOc1ccccc1CNCCO,-2,i,-8,5,5,-16,-19,-7,
Cc1cc(C(=O)COC(=O)/C=C/c2ccco2)c(C)n1C,.,.,.,-2,3,-13,-7,-21,
COc1ccc(N(CC(=O)NC2CCCCC2)S(=O)(=O)c2cccs2)cc1,.,.,.,-2,0,-9,-11,.,
COc1cc(NC(=O)C2CCCO2)c(C(=O)O)cc1OC (configuration not stated),9,i,16,2,5,10,-1,.,
O=C(Cc1c(F)cccc1Cl)Nc1ccc(-n2cnnn2)cc1,6,i,98,-1,-3,2,.,12,eIF4H FP inh retest=6;PABP FP inh retest=34
O=C1CN(C(=O)COc2ccccc2)CCN1,0,i,-4,1,1,-10,-32,-3,
O=C(COC(=O)Cc1ccc(Cl)cc1Cl)NCCC1=CCCCC1,-7,i,4,-2,-4,-6,.,23,
Cc1noc(C)c1S(=O)(=O)Nc1ccc2c(c1)CC(=O)N([C@H](C)CO)C[C@H](C)[C@H](CN(C)S(=O)(=O)c1ccc(F)cc1)O2,.,.,.,1,-2,.,-9,13,
CC/C(C)=N/Nc1cccc([N+](=O)[O-])c1,-4,i,5,2,0,67,-22,-15,
CCOC(=O)C1CCN(CC(O)COCc2ccccc2)CC1 (configuration not stated),14,i,10,4,6,-4,-13,10,
O=C(Nc1cccc(C(F)(F)F)c1)C(Sc1cccc[n+]1[O-])c1ccccc1 (configuration not stated),-4,i,-7,7,3,6,.,20,
O=C(NC1CCN(Cc2ccccc2)CC1)C1CCN(c2nnc(-n3cccc3)s2)CC1,-3,i,-11,1,-3,-19,9,18,
CC(=O)Nc1cccc(-c2ccnc3c2CC(C(=O)NCCN(C)C)O3)c1 (configuration not stated),.,.,.,1,4,.,-13,-10,
O=[N+]([O-])c1cccc(S(=O)(=O)NCC2CCCO2)c1 (configuration not stated),3,i,4,-1,3,2,.,-8,
CC(c1cccnc1)N(CCN(C)C)C(=O)Nc1ccc(Cl)c(Cl)c1 (configuration not stated),.,i,.,-3,-3,-10,-26,-195,
CCCCCC(=O)N1C[C@H](O)[C@@H](n2cc(-c3ccc(F)cc3)nn2)C[C@@H]1c1ccc(C)cc1,.,.,.,-4,-14,.,-21,-1,
COCCOC1CCN(C(=O)C2CCC(=O)N(CCc3cccc(F)c3)C2)CC1 (configuration not stated),-8,i,-6,1,3,-7,-3,-7,

# Some of these compounds in order of molar mass, rising.
SMILES,eIF4H FP inh,Rce1 inhib,PABP FP inh,MT1-MMP act inh,MT1-MMP act inh RFP,CSC inhib,UUG fidelity,Env fusion inh,others
CCOc1ccccc1CNCCO,-2,i,-8,5,5,-16,-19,-7,
CC(c1cccnc1)N(CCN(C)C)C(=O)Nc1ccc(Cl)c(Cl)c1 (configuration not stated),.,i,.,-3,-3,-10,-26,-195,
CSCCC(NC(=O)c1ccccc1Cl)C(=O)NNC(=O)c1ccccc1O (configuration not stated),.,i,.,1,4,27,-18,-5,

# New compounds follow
SMILES,eIF4H FP inh,Rce1 inhib,PABP FP inh,MT1-MMP act inh,MT1-MMP act inh RFP,CSC inhib,UUG fidelity,Env fusion inh,others
O=C(COc1ccccc1)Nc1c2c(nn1-c1ccc(F)cc1)CS(=O)C2 (configuration not stated),.,.,.,0,4,.,-41,-36,
COc1cccc(C2C(C#N)=C(N)N(N(C)C)C3=C2C(=O)CCC3)c1OC (configuration not stated),-1,i,-4,-6,-2,-13,-26,-3,
CCOC(=O)C(C(=O)NCC1CCCO1)C1CCCCC1 (configuration not stated),8,i,8,-1,3,-9,-13,.,
COC(=O)c1cc2sccc2n1CC(=O)N(C)c1ccccc1,2,i,-16,2,4,0,.,1,
CC(=O)c1cccc(OCc2cc(C(=O)NC(C)Cc3cccnc3)no2)c1 (configuration not stated),-4,i,-9,1,2,-2,-19,13,
O=C(NCCCN1CCCC1=O)c1cn(-c2ccccc2)nc1-c1ccccc1,2,i,-4,-3,2,-7,-38,-6,
Cc1cccc(CC2S/C(=N/c3cccc(C)n3)NC2=O)c1 (configuration not stated),0,i,-3,4,-1,-1,-6,14,
COc1ccccc1NC(=O)c1ccc(COc2ccccc2OC)o1,-6,i,-2,6,-2,-7,9,-11,
O=C(NCc1ccc(F)cc1)C1CCCN(S(=O)(=O)c2cccc3nonc23)C1 (configuration not stated),-12,i,7,3,-3,-10,-8,8,
COc1ccccc1OCCC(=O)OCC(=O)c1[nH]c(C)c(C(C)=O)c1C,16,i,-2,-3,-3,-14,.,22,
CCOC(=O)CON1C(=O)C(=O)N(OCC(=O)OCC)C2CCCCC21 (configuration not stated),-8,i,-1,0,3,.,.,7,
Cc1nc2sc(C(=O)c3ccccc3)c(N)c2c(C)c1C,2,i,-4,2,2,4,.,-4,
Cc1ccc(/C=C/C(=O)OCC(=O)NC(C)c2ccccc2)o1 (configuration not stated),.,.,.,2,3,-16,-4,.,
Cc1cc(C)c(S(=O)(=O)Nc2ccc(O)c(Sc3ncn[nH]3)c2)cc1C,9,i,19,-2,-3,.,-30,7,
CCOc1cc(/C=C/C(=O)Nc2ccc(C(=O)NCCN(CC)CC)cc2)ccc1OCC(C)C,-12,i,2,-16,-18,-11,.,7,
CCc1cccc(CC)c1NC(=O)c1cc(CN2C(=O)c3ccccc3C2=O)ccc1OC,-4,i,-2,-4,-7,-12,.,4,
Cc1ccc2cccc(OC(=O)/C=C\c3ccccc3)c2n1,11,i,-2,0,0,-12,.,3,
CCCCSCc1cc(C(=O)O)oc1C(C)(C)C,-2,i,2,1,6,-12,.,10,
CCOC(=O)C1=C(C)N=c2s/c(=C\c3ccc(C(=O)O)cc3)c(=O)n2C1c1ccc(F)cc1 (configuration not stated),-4,i,-1,0,-10,53,-11,-11,
CCN(Cc1ccncc1)C(=S)Nc1ccccc1,-6,i,-3,1,0,-5,6,25,
Cc1c(C(=O)OC(C)C)[nH]c2c1C(=O)CCC2,0,i,-13,0,-4,-8,-11,.,
CCNC(=O)c1cccc(NC(=O)CC2SC(N3CCCCC3)=NC2=O)c1 (configuration not stated),.,i,.,-1,1,-19,-13,-3,
COC(=O)CCC(=O)Oc1ccc(OC(=O)CCC(=O)OC)cc1,-2,i,-10,.,.,-4,.,.,
Cc1ccccc1NS(=O)(=O)c1ccc(C)c(C(N)=O)c1,-8,i,-4,3,3,-1,.,8,
CCN(CC)CCNC(=O)COc1ccc(OC)cc1,5,i,-2,4&1,4&2,-5&-16,-1&-12,4&-40,
CC(C)Oc1ccc(CNC(=S)Nc2ccccc2)cc1Cl,3,i,-5,3,-5,13,-24,-4,
CCOc1ccccc1NC(=O)CN(C)S(=O)(=O)c1cnc[nH]1,6,i,-8,-3,-2,8,.,-9,
Cc1cc(C)c2nc(NNC(=O)c3ccc(S(=O)(=O)N4CCCC(C)C4)cc3)sc2c1 (configuration not stated),14,i,-4,9,-5,119*,-21,.,
Cc1ccccc1NC(=O)C1CCCN1S(=O)(=O)c1ccccc1C(F)(F)F (configuration not stated),.,.,.,0,1,3,7,25,
